AmpC nodet inh: Promiscuous and Specific Inhibitors of AmpC Beta-Lactamase (assay without detergent); 71,000 compounds, 1.8% hits; Potency, µM (top dose mostly 28.7 µM), without a hit: top-dose activity change, negative = inhibition; AmpC nitrocefin hydrolysis, absorbance 480 nm, no detergent; potencies from a single point are estimates; AID 585, 2007; P00811; active = falling curve, for most hits resting on a single point; inconclusive = weak or doubtful change; inactive = flat or rising curve; note: % of control where 0% means no effect; about half of the hits show no inhibition at the top dose; a quarter of the inactives give rising signals
Target sequence (P00811 whole entry, looked up): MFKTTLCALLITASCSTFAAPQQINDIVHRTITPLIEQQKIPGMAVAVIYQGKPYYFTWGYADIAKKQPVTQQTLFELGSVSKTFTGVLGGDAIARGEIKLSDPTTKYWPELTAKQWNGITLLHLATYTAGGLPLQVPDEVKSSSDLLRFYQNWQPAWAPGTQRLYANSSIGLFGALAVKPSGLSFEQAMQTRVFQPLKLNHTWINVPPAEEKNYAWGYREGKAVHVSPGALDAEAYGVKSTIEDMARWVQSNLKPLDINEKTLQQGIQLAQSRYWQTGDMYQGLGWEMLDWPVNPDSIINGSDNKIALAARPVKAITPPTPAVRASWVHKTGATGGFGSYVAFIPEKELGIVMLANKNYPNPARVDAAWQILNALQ
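Enzyme, pH 7.0 phosphate. Compound titrations were pre-incubated with AmpC for 15 min at room temperature before nitrocefin (stock 800 uM) addition; product formation was recorded at 480 nm every 20 s for 4 min.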
* = called active by the depositor; ? = inconclusive; [ ] = remark or other dose. Potency is the fitted concentration of half-maximal effect.

Structure	AmpC nodet inh
CCCn1c2c(c(O)c(C(=O)Nc3ccc(OC)cc3)c1=O)CCCC2	47%
O=C(c1ccncc1)N1CCC2(CCCN(C(c3ccccc3)c3ccccc3)C2)CC1	145%
Cc1ccc(-c2nn(CC(=O)O)c(=O)c3ccccc23)cc1	-10%
COc1ccc(CNC(=O)C2CC(c3ccc(F)cc3)=NO2)cc1 (stereo unspecified)	2%
CC(=O)Nc1ccc(NS(=O)(=O)C(F)(F)F)cc1	-17%
CCOC(=O)c1ccc(Nc2cc(C)nc3ncnn23)cc1	11%
Cc1cc(NC(=O)C2COc3ccccc3O2)no1 (stereo unspecified)	4µM*[single pt active]
Cc1ccc2nc(NC3=NCN(Cc4cccnc4)CN3)nc(C)c2c1	2%
CN1C[C@@H](CS(=O)(=O)N(C)C)C[C@H]2c3cccc4c3c(cn4C)C[C@@H]21	37%
NS(=O)(=O)c1cc2c(cc1Cl)NCNS2(=O)=O	-7%
CN1C2CCC1CC(OC(=O)c1c[nH]c3ccccc13)C2 (stereo unspecified)	-6%
O=S(=O)(c1ccc(F)cc1)N(CCO)CC(O)Cn1c2ccccc2c2ccccc21 (stereo unspecified)	140%
CC(=O)NC1CCN(C(=O)N2CCCC2)CC1	4%
COc1ccc(CN2CCCC(C(=O)N3CCCC3)C2)cc1 (stereo unspecified)	-2%
Cc1ccc(-c2nnc3n2N=C(c2ccc(Br)cc2)CS3)cc1	9%
O=C(NCN1CCc2ccccc2C1)c1ccccc1	-4%
CCOC(=O)c1cccc(NC(=O)CSc2nnc(COc3ccc(Cl)cc3)o2)c1	-11%
COc1ccc(N2C(=O)CC(N3CC=C(c4ccccc4)CC3)C2=O)cc1 (stereo unspecified)	22%
O=C(CCCN1C(=O)c2ccccc2C1=O)Oc1ccc(F)cc1	5%
Cc1cc(C(F)(F)F)n2ncc(-c3ccccc3)c2n1	-4%

Random excerpt: 5 entries already listed.
Structure	AmpC nodet inh
COc1ccc(N2C(=O)CC(N3CC=C(c4ccccc4)CC3)C2=O)cc1 (stereo unspecified)	22%
CC(=O)NC1CCN(C(=O)N2CCCC2)CC1	4%
Cc1cc(C(F)(F)F)n2ncc(-c3ccccc3)c2n1	-4%
COc1ccc(CN2CCCC(C(=O)N3CCCC3)C2)cc1 (stereo unspecified)	-2%
O=S(=O)(c1ccc(F)cc1)N(CCO)CC(O)Cn1c2ccccc2c2ccccc21 (stereo unspecified)	140%

(list continues)
Structure	AmpC nodet inh
COc1cc(NS(=O)(=O)c2ccc(NC(=O)C34CC5CC(CC(C5)C3)C4)cc2)ncn1	-13%
Cc1cccc(N(C)S(=O)(=O)c2ccc3[nH]c(=O)c(=O)[nH]c3c2)c1	-23%
Nc1cc(Cl)cc(C(=O)O)c1Cl	-3%
Clc1ccccc1CNCC1CCC(CNCc2ccccc2Cl)CC1 (stereo unspecified)	19%
CC(C)CCSc1nc2c(c(=O)[nH]c(=O)n2C)n1CCc1ccccc1	14%
CCOC(=O)C1=C(Nc2ccccc2)OCC1=O	2%
CCOC(=O)C1=C(C)NC(SCc2cc(=O)[nH][nH]2)=C(C#N)C1c1cccs1 (stereo unspecified)	1%
O=C(Cc1ccccc1)N1CCN(C/C=C/c2ccccc2)CC1	89%
CC(=O)NC1(c2cccc(F)c2)CCN(CC(=O)NC2CCCCC2)CC1	31%
Cn1c(-n2c(CCCN3C(=O)c4ccccc4C3=O)nc3ccccc3c2=O)nc2ccccc21	8%
COc1ccccc1N1C(=O)C2CC(C)=C(C)CC2C1=O (stereo unspecified)	10%
COc1ccc(S(=O)(=O)Cc2ccc(C(=O)N3CCOCC3)o2)cc1	4µM*[single pt active]
COc1cc(C)c(C(C)C)cc1S(=O)(=O)N1CCOCC1	35%
COCCCNC(=O)CCCn1c(=O)c2ccccc2n(CC(=O)Nc2c(C)cccc2C)c1=O	15%
CC12CCC(C(=O)NCc3ccc4c(c3)OCO4)(CC1=O)C2(C)C (stereo unspecified)	-8%
O=C(CCS(=O)(=O)c1ccc(Br)cc1)N1CCN(c2ccccc2F)CC1	52%
COc1ccc(-c2nc(C)sc2CC(=O)O)cc1	-3%
Cc1cc(NC(=O)C2CC=CCC2C(=O)O)no1 (stereo unspecified)	3%
CCOc1ccccc1NC(=O)C1CCCN1C(=O)OCc1ccccc1 (stereo unspecified)	50%
CCOn1c(=O)c(-c2cc3ccccc3o2)[n+]([O-])c2ccccc21	10%
c1ccc(/C(=N/Nc2nc3ccccc3s2)c2ccccn2)cc1	35%[5.75 µM]
COc1ccc(Br)cc1C1SCCN1S(C)(=O)=O (stereo unspecified)	11%
NCCNc1cccc2ccccc12	-12%
CCN1C(=O)c2ccccc2S(=O)c2ccc(C(=O)N3CCCC3)cc21 (stereo unspecified)	13%
CC(C)Sc1nc2c(c(=O)n1C)SC(C)C2 (stereo unspecified)	2%
Cc1nc(N2CCN(Cc3ccc4c(c3)OCO4)CC2)nc2c1C(=O)CC(c1ccco1)C2 (stereo unspecified)	21%
COc1cccc(Nc2c(F)c(F)c(F)c(F)c2C(=O)O)c1	-8%
O=C(Nc1ccn(Cc2ccc(F)cc2)n1)c1ccncc1	-8%
CCC(Sc1nc2cc3c(cc2c(=O)n1Cc1ccco1)OCO3)C(=O)Nc1cccc(OC)c1 (stereo unspecified)	5%
Cn1cccc1C(=O)N1CCC[C@@]2(CCN(C(=O)Nc3cccc(F)c3)C2)C1	14%
COC(=O)c1cc(OC)c(OC)cc1NC(=O)c1cccnc1	21%
CC1CCc2ccccc2N1C(=O)c1cccs1 (stereo unspecified)	1%
Cn1c(SCc2ccccc2)nnc1C1CCCNC1 (stereo unspecified)	-8%
CSc1oc(-c2ccccc2)nc1S(=O)(=O)c1ccc(C)cc1	0%
CC(C)(C)NC[C@H](O)COc1cccc2c1CCC(=O)N2	-15%[12.8 µM]
CC(C)C12CN3CCN(CC(C3)C1O)C2 (stereo unspecified)	14%
CCOC(=O)N1CCC(NC(=O)Cn2nc(Cc3ccncc3)c3ccccc3c2=O)CC1	4µM*[single pt active]
O=c1sc(N2CCN(c3ccccc3F)CC2)nc2ccsc12	2%
Cc1nn(-c2ccccc2)c(C)c1C(=O)OCC(=O)NCc1ccco1	19%
CCc1nnc(NC(=O)c2cccc(S(=O)(=O)N3CCc4ccccc43)c2)s1	?
Cc1cc(C)c2c(=O)[nH]n(C3CCOC(C)(C)C3)c2n1 (stereo unspecified)	6%
O=C(CSc1ccc2nnc(-c3cccnc3)n2n1)N1CCc2ccccc21	14%
CCOC(=O)c1c(C)c(C(=O)N2CCCCCC2)c(C)n1C	27%
O=C(Nc1cc(C(=O)N2CCOCC2)ccc1N1CCCC1)c1cccs1	8%
CCc1c(C)sc(NC(=O)c2cc(C3CC3)on2)c1C#N	-12%
CN(CCCNC(=O)C1CCC(=O)N1Cc1ccc(F)cc1)c1ccccc1 (stereo unspecified)	92%
COc1cc2c(cc1OC)CN(Cc1cc(=O)n3cc(C)ccc3n1)CC2	-21%
CC(C)C(NC(=O)OC(C)(C)C)C(=O)N1CCCC1C(=O)NC(Cc1ccccc1)C(N)=O (stereo unspecified)	16%
Cc1noc(C)c1-c1nccc(NCc2ccccc2)n1	-5%
Cc1cc(N2CCCCC2)n2ncc(-c3ccc(Cl)cc3)c2n1	6%

(cont.)
Structure	AmpC nodet inh
Cc1ccc(C(=O)NC2CCN(C(=O)N3CCOCC3)CC2)cc1	0%
CC(C)COC(=O)c1ccccc1C(=O)OCC(C)C	-3%
CCOC(=O)N1CCC(NC(=O)Cc2cn(C)c3ccccc23)CC1	44%
COc1cc(S(=O)(=O)N2CCCCC2)ccc1NC(=O)c1ccc(F)cc1	-3%
CC(C)NCC(O)COc1cccc2ccccc12 (stereo unspecified)	2%
CCOc1cc(S(=O)(=O)Nc2ccccn2)ccc1F	-6%
C=CCc1ccccc1OC[C@H](O)CNC(C)C	-2%[12.8 µM]
O=c1nc(NC2CCCC2)ccn1Cc1cccc(Br)c1	-10%
COCCCNC(=O)CN1C(=O)CSc2ncccc21	-4%
CC(C)COC(=O)Nc1ccccc1C(=O)N1CCOCC1	1%
CCCCn1nnc(NC(=O)COc2cc(C)ccc2C(C)C)n1	26%
CCOC(=O)C1CCCN(C(=O)c2ccc(CS(=O)(=O)Cc3ccccc3C)o2)C1 (stereo unspecified)	53%
CCOC(=O)NC1(C(F)(F)F)C(=O)NC(C)=C1C(=O)OC (stereo unspecified)	10%
COc1ccccc1OCC(=O)Nc1ccc(S(=O)(=O)NC(C)=O)cc1	-8%
CCOC(=O)C1CCN(C(=O)CN(Cc2ccc(Cl)cc2)S(C)(=O)=O)CC1	98%
Cc1ccc(C)c(OCC(=O)Nc2cc(C)on2)c1	2%
CCN1CCN(C(=O)Cn2c(=O)sc3ccccc32)CC1	-14%
Nc1nc(-c2ccccc2Br)cs1	-14%
Cc1[nH]nc2c1C(=O)CCC2	-7%
O=C(CSc1ncccc1-c1nc2ccccc2[nH]1)NC1CC1	-10%
Cc1ccc(C2=[N+]([O-])C3(CCCCC/C3=N\O)N(O)C2(C)C)o1 (stereo unspecified)	4%
CC(C(=O)NCc1ccccc1)N1C(=O)CN(C)C(=O)c2ccccc21 (stereo unspecified)	14%
O=C(C1CCC(=O)N1Cc1ccccc1Cl)N1CCN(c2cccc(Cl)c2)CC1 (stereo unspecified)	123%
Cn1ccnc1SCC(=O)Nc1cccc2ccccc12	4%
O=C(NC1CCCC1)C1C2C=CC3(CN(Cc4cccs4)C(=O)C13)O2 (stereo unspecified)	4%
c1ccc2c(c1)CCNC2	-22%
CN(C)CCCN1C(=O)C(=O)/C(=C(/O)c2ccc3c(c2)OCCO3)C1c1ccco1 (stereo unspecified)	-3%
N=C(N)c1ccc(OCCCCCOc2ccc(C(=N)N)cc2)cc1	?
N#Cc1ccc(CN2CC3(CCN(C(=O)c4csnn4)CC3)C2)cc1	6%
O=C(COC(=O)C12CC3CC(CC(O)(C3)C1)C2)NC(=O)NCc1ccco1	16%
CCc1c(C)nc2[nH]nc(-c3ccccc3)n2c1=O	-10%
NC(=O)c1ccccc1NS(=O)(=O)Cc1ccccc1	-14%
CS(=O)(=O)Nc1ccccc1C(=O)N1CCOCC1	-10%
OCCCCO	-5%
Cc1ccc(OCCN2C(=O)CSC2=O)cc1	-11%
Cc1nc(N2CCN(Cc3ccccc3)CC2)nc2c1C(=O)CCC2	82%
Cc1cc(C)c(S(=O)(=O)NCc2cn3c(C)csc3n2)c(C)c1	-1%
c1ccc(CCNc2ccccn2)nc1	-4%[5.75 µM]
C=CCOc1ccc(C(=O)N(Cc2ccc(N(C)C)cc2)C2CCS(=O)(=O)C2)cc1 (stereo unspecified)	69%
COc1ccc(-c2nc3cnc(N4CCN(C)CC4)nc3n(Cc3cccc(OC)c3)c2=O)cc1	138%

Ordered by molar mass (lowest first): some entries from above.
Structure	AmpC nodet inh
OCCCCO	-5%
CCc1c(C)nc2[nH]nc(-c3ccccc3)n2c1=O	-10%
NC(=O)c1ccccc1NS(=O)(=O)Cc1ccccc1	-14%
Cc1cc(C)c(S(=O)(=O)NCc2cn3c(C)csc3n2)c(C)c1	-1%
COc1ccc(-c2nc3cnc(N4CCN(C)CC4)nc3n(Cc3cccc(OC)c3)c2=O)cc1	138%

More structures follow.
Structure	AmpC nodet inh
CCN(CC)S(=O)(=O)c1ccc2oc(C(=O)N3CCOCC3)c(C)c2c1	35%
COc1ccc(S(=O)(=O)N2CCC(C(=O)NCc3ccco3)CC2)cc1	3%
c1ccc(-c2n[nH]c3c2CCC3)cc1	0%
Brc1ccc(-c2nnc3sc(CN4CCc5ccccc5C4)cn23)cc1	-15%
Cc1cc(C)c2c(n1)nn1c(N3CCN(c4ccccn4)CC3)cc(C)nc21	48%
c1ccc2c(c1)-c1ccccc1C2N1CC2CCC(CC2)C1	-6%[5.75 µM]
CS(=O)(=O)Nc1cccc(-c2nc(NCCN3CCOCC3)c3ccccc3n2)c1	32%
CCOC(=O)C1CCN(C(=O)c2ccc3snnc3c2)CC1	3%
O=C(CN1CCOCC1)Nc1ccc(C2CCCCC2)cc1	125%
Cc1cc(Nc2nc3c(c(=O)n(C)c(=O)n3C)n2C)n(-c2ccccc2)n1	-3%
CCOC(=O)C1=C(C)N=c2s/c(=C\c3ccncc3)c(=O)n2C1c1ccc2c(c1)OCO2 (stereo unspecified)	83%
Clc1ccc2[nH]c3c(c2c1)CCc1cn[nH]c1-3	7%
CNc1cccccc1=S	2%
O=c1c(-c2cccs2)nc2cnc(Oc3ccccc3)nc2n1-c1ccccc1	-3%
CC(=NCc1ccco1)C1=C(O)c2ccccc2C1=O	2%
c1csc(-c2cnc3ccccc3n2)c1	-5%
O=C(CN1CCOc2ccccc21)NCc1ccc(Cl)cc1	38%
CC1(C)NC(=O)N(CCOCCOc2cccc(Oc3ccccc3)c2)C1=O	118%
CCN1C(=O)CC(N2CCC(C(=O)OC)CC2)C1=O (stereo unspecified)	6%
OC(COc1c(F)cc(Br)cc1F)CN1CCN(c2ccc(F)cc2)CC1 (stereo unspecified)	30%
C=CCn1cc(C(=O)NCCOC)c(=O)c2cc(S(=O)(=O)N(CC)CC)ccc21	71%
COc1ccc(O)c(C(=O)c2cc(C#N)c(=O)n(-c3c(C)n(C)n(-c4ccccc4)c3=O)c2)c1	22%
S=c1[nH]c2ccccc2s1	-15%

Compound activity from PubChem BioAssay.

The list is partial, so the mix of outcomes need not match the whole.
